VDR inhibitor: inhibitors of human vitamin D receptor; P11473; VDR-SRC2-3 peptide fluorescence polarization, 2 h; Potency, µM, for the others: max response, negative = inhibition, most hits filed as inhibitors; actives 0.93% (n = 400,000); active = well fitted inhibition curve with a large enough effect; inconclusive = small, poorly fitted or top-dose-only effect, or another doubt; inactive = no such curve, though single readings can be large or run the other way; also: series mostly up to about 120 µM
Target sequence (P11473 whole entry, looked up): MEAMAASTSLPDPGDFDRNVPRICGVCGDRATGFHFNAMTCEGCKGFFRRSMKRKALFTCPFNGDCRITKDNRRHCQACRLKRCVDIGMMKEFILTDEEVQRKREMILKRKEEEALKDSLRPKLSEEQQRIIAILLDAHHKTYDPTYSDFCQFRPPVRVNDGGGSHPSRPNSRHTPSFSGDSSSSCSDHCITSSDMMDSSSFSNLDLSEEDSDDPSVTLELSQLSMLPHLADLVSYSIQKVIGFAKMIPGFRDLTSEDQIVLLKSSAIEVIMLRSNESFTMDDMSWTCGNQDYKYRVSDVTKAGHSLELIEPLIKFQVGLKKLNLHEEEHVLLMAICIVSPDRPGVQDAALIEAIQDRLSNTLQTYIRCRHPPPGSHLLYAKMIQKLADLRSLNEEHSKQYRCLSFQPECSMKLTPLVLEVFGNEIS
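Two reagent solutions held at 4 deg C in the dark were dispensed, compounds pinned at 23 nl, and the mixture incubated 2 h at room temperature. Read-out: fluorescence polarization of VDR–SRC2-3 peptide binding.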
Starred values were filed as active, the others as inactive; ? = inconclusive; & = joins results of further samples. % is scaled to controls: 0 for no effect and ±100 for the full control effect; potency is read from the fitted curve at half-maximal effect. This is a subset; the hit share may differ from the screen's.

SMILES	VDR inhibitor
CCN(CC)CCOCCOc1ccccc1F	-8%
Nc1nnnn1NCc1cccc(OCc2ccccc2)c1	2%
CCCN(C(=O)Cc1c(C(=O)O)[nH]c2ccc(Cl)cc12)c1ccc(OCC)cc1	-25%
COc1cc(/C=N/NC(=O)COc2cccc(F)c2)ccc1OS(=O)(=O)c1ccc(C)cc1	-25%
CCc1nn(CCCC(=O)NCc2ccccc2C)c(=O)c2cc3occc3n12	-24%
COc1ccc(-c2cn3nc(N4CCC(C(=O)Nc5cc(Cl)ccc5C)CC4)sc3n2)cc1	6%
CC1(c2nnc(-c3ccccc3)o2)CC(c2c(Cl)cccc2Cl)=NO1 (configuration not stated)	-26%
COc1ccccc1N(CC(=O)NC1CCCCC1)C(=O)CCC(=O)Nc1ccccn1	-1%
CCCCCCCn1c2c(c(=N)c3c1CCC3)CCCC2	-6%
O=C(Cn1cncn1)NCCCc1ccccc1	0%
COc1ccc(C(=O)C2CC2)cc1	2%
COc1ccccc1C1=CC(=O)CCC1	-1%
Cc1cccc(C(=O)NNC(=O)c2ccc(Br)cc2)c1	-16%
COc1cc(CNc2ccc(N3CCCC3)cc2)cc(Cl)c1OC	5.6µM*
Cc1noc(N)c1C(=O)Nc1ccc(F)cc1	-10%
CCCn1nc(C(=O)Nc2cc(C(=O)OC)ccc2C)c2ccccc2c1=O	-1%
Cc1sc(NC(=O)Cc2ccc3c(c2)OCO3)nc1-c1ccc2c(c1)CCN2C(=O)c1ccccc1F	3%
O=C(c1ccc(Cl)s1)N1CCN(c2nc3ccccc3s2)CC1	6%
O=C(Cc1ccccc1)N1CCC(c2ccccc2)C1 (configuration not stated)	1%
COc1cccc(CN2CCN(S(=O)(=O)c3ccc(Cl)s3)CC2)c1	7%
O=C(O)C1CC(O)CN1S(=O)(=O)c1ccc2ccccc2c1 (configuration not stated)	3%
Cc1cc(N2CCCC2)nc(-c2ccccc2O)n1	-11%
CC(=O)c1ccc(N/C=C\C(=O)c2ccc(C)cc2)cc1	-17%
CCN(CC(=O)Nc1c(F)cccc1F)C(=O)C1CCC1	-6%
C/C(Cn1nc([N+](=O)[O-])cc1C)=N\NC(=O)c1ccc(O)cc1O	21%
Carrying on.
SMILES	VDR inhibitor
Cc1ccc(-c2nnc(C3CCN(S(=O)(=O)c4ccc(C)c(C)c4)CC3)o2)cc1	-14%
O=C(COC(=O)c1cccc(Cl)c1Cl)NCCN1C(=O)CSC1=O	-28%
O=C(Nc1ccccc1N1CCCC1)c1cccc(S(=O)(=O)N2CCOCC2)c1	-2%
CCOC(=O)c1cc(S(=O)(=O)Nc2cccc(OC)c2)cn1C	5%
CCC(C)n1c(SCc2ccc(F)cc2Cl)nc2ccsc2c1=O (configuration not stated)	4%
Cc1cc(=O)oc2cc(OCC(O)CN3CCc4ccccc4C3)ccc12 (configuration not stated)	?
S=C(NNC(=S)NC1CC2C=CC1C2)NC1CC2C=CC1C2 (configuration not stated)	5%
COc1ccccc1N1CCN(C(=O)c2cc3c(C)nc4ccccc4c3o2)CC1	-15%
Cc1ccc(C(=O)NCC(=O)OCC(=O)Nc2cc(C)c(C)cc2[N+](=O)[O-])cc1	4%
COc1ccc(-c2nc(SCC(=O)N3CCCC3)n[nH]2)cc1	-8%
CN(C)CCCNCCCNC(=O)c1ccco1	-1%&9%
COc1ccc(C(=O)N(Cc2cccs2)C2CCS(=O)(=O)C2)cc1 (configuration not stated)	-13%
N#CN=c1snc(-c2ccccc2)n1-c1ccc(Br)cc1	-10%
CCOC(=O)C1CCN(Cc2ccc(F)c(Br)c2)CC1	5%
CC(=O)Nc1nc(SCC(=O)NCC2CCCO2)[nH]c(=O)c1NC(=O)c1cccs1 (configuration not stated)	13%
O=C(c1ccc(-n2cnnn2)cc1)N1CCN(C(c2ccccc2)c2ccccc2)CC1	-1%
O=C(C1=C[C@H](C2CCCCC2)C[C@H](OCCCCO)O1)N1CCOCC1	-2%
Cc1ccc2c(c1)[C@H]1[C@H](CO2)[C@H](c2ccccc2)[C@]2(C)C(=O)Nc3cc(Cl)ccc3C(=O)N12	-4%
COc1ccc(CNC(=O)c2cc(-c3ccccc3O)n[nH]2)cc1	-8%
CCOC(=O)c1cnc2ccc(F)cc2c1Nc1ccc2c(c1)OCCO2	-13%
Cc1cc(C)n2nc(S(=O)(=O)N(C)c3ccccc3)nc2n1	-4%
CCc1ccc(N2CC(C(=O)OC)CC2=O)cc1 (configuration not stated)	-5%
C#CCOCCOCCOCCNc1nc(N2CCN(C(=O)[C@H](CCCCN)n3cc([C@@H](N)C(C)CC)nn3)CC2)nc(N2CCN(C(=O)[C@H](Cc3cc4ccccc4[nH]3)n3cc([C@@H](N)C(C)CC)nn3)CC2)n1 (some centres not stated)	-1%
O=C(OCCC1Oc2cccnc2NC1=O)c1ccc(Cl)cc1 (configuration not stated)	-15%
Cc1ccc(C)c(C(=O)CN2C(=O)c3ccccc3S2(=O)=O)c1	-1%

Arranged by the number under VDR inhibitor (low to high): some entries from above
SMILES	VDR inhibitor
CCc1nn(CCCC(=O)NCc2ccccc2C)c(=O)c2cc3occc3n12	-24%
CC(=O)c1ccc(N/C=C\C(=O)c2ccc(C)cc2)cc1	-17%
Cc1noc(N)c1C(=O)Nc1ccc(F)cc1	-10%
COc1ccc(CNC(=O)c2cc(-c3ccccc3O)n[nH]2)cc1	-8%
COc1ccccc1C1=CC(=O)CCC1	-1%
O=C(O)C1CC(O)CN1S(=O)(=O)c1ccc2ccccc2c1 (configuration not stated)	3%

Next results:
SMILES	VDR inhibitor
CCn1c(=O)c2ccccc2n(Cc2ccc([N+](=O)[O-])cc2)c1=O	4%
COc1ccc(Nc2ncnc3c2c(C)c(C)n3CCCN(C)C)cc1	16%
CCN(C[C@H]1N[C@@](C)(C(=O)OC)[C@H]2C(=O)N(C)C(=O)[C@@H]12)C(=O)Nc1ccc(Cl)cc1	3%
COc1ccccc1CNC(=O)C(NC(=O)C1CCCCC1)C(C)C (configuration not stated)	24%
Cc1cc([N+](=O)[O-])nn1CCC(=O)NC1CCCCCC1	-15%
CS(=O)(=O)N(CC(=O)O)Cc1cccc(CN(CC(=O)O)S(C)(=O)=O)c1	0%
CSCCCNC(=S)Nc1ccc(N2CCOCC2)cc1N1CCOCC1	7%
COc1cc(CNCc2c(C(=O)O)c(C)n(Cc3cccc(Cl)c3)c2C)cc(OC)c1OC	6%
Cc1cnc(C)c(N2CCN(Cc3cn(C)nc3-c3cccc(Cl)c3)CC2)n1	8%
CCOC(=O)C1=C(C)N(c2ccccc2)C(=O)/C1=C\c1ccc(O)c(OC)c1	?
O=C(c1ccc(Cl)cc1)c1ccccc1C(=O)N1CCOCC1	1%
O=C(Nc1ccccc1N1CCOCC1)c1cccc(Oc2ccccc2)c1	9%
COc1ncc2nc(-c3cc(F)cc(F)c3)c(=O)n(C[C@H]3CCCO3)c2n1	-1%
Cc1ccc(Nc2nc3c(c(=O)[nH]2)CCCC3)cc1	-5%
CCN(CC)CCn1c(NC(=O)c2ccc(Cl)cc2)nc2ccccc21	-10%
Cc1ccc(/C=C/C(=O)N2CCCN(C(=O)/C=C/c3ccc(C)cc3)CC2)cc1	-13%
COc1cccc(N2[C@@H](CC(=O)O)c3cc(C(F)(F)F)ccc3S2(=O)=O)c1	0%
COCOc1ccc(-c2cc(=O)c3c(O)cc(OCOC)cc3o2)cc1	0%
CCc1ccc(OCC(=O)O/N=C(\N)c2cccnc2)cc1	6%
O=C1NC(c2ccncc2)Nc2sc3c(c21)CCCC3 (configuration not stated)	-26%
CCOc1ccc(OCC)c(NC(=O)c2nnn(Cc3cc(Br)ccc3OC)c2N)c1	-13%
CCc1n[nH]c(=S)n1N=C1CCC(C)CC1 (configuration not stated)	1%
COc1ccccc1-c1c(NC(=O)C(C)C)n(C)c2ccccc2c1=O	6%
COCCN=C1NC(=O)C(CC(=O)Nc2cccc(Cl)c2C)S1 (configuration not stated)	-5%
CCOC(=O)Cc1cc(=O)n2[nH]c(C)cc2n1	0%
The list goes on.
SMILES	VDR inhibitor
CC1OC1P(=O)(O)O (configuration not stated)	2%&0%
CCSc1nc(O)c(CC)c(=O)n1C(C)CC (configuration not stated)	5%
N#Cc1ccccc1OCC(=O)C1CC1	-14%
Oc1ccc(/C=N/Nc2nccnc2Cl)cc1	-13%
CN1CCC(CN)(N2CCN(c3ccccc3)CC2)CC1	12%
O=c1c2ccccc2c2ccccc2c(=O)n1Cc1cccnc1	21%
Nn1cnnc1N/N=C/c1ccc(Cl)cc1Cl	24%
NS(=O)(=O)c1ccc(NC(=S)N2CCN(C(=O)C3CCCO3)CC2)cc1 (configuration not stated)	?
CC(=O)N1N=C(c2ccco2)CC1c1cc2cc(C)ccc2nc1Cl (configuration not stated)	-7%
Cc1ccc(-c2nc3ccc(Cl)cc3n2OC(C)C(=O)O)cc1 (configuration not stated)	-2%
c1ccc2c(c1)Cn1nnnc1-2	1%
O=C(c1csc2ccccc12)N1CCCCCC1	11%
CCOc1cccc(-c2nc3c(s2)CCc2onc(-c4cccc([N+](=O)[O-])c4)c2-3)c1	-19%
O=C(c1ccccc1Cl)N(Cc1ccccc1F)N1C(=O)CCCC1=O	14%
COC(=O)C1CCN(S(=O)(=O)Cc2ccccc2Cl)CC1	-15%
Cc1ccc(-c2cc(C(=O)N3N=C(C(F)F)CC3(O)C(F)F)c3ccccc3n2)cc1C (configuration not stated)	13%
CN(Cc1ccccc1)C(=O)c1ncn(Cc2ccccc2)c1C(=O)N(C)Cc1ccccc1	-2%
OCCCC1CCCN(Cc2cn[nH]c2-c2ccc(F)cc2F)C1 (configuration not stated)	-6%
CSc1nnc2c3c4c(sc3nc(-n3nc(C)cc3C)n12)COC(C)(C)C4	?
O=[N+]([O-])c1ccccc1Nc1cccnc1	-12%
COc1ccc(/C=N/S(=O)(=O)c2cccs2)cc1	12%
CC1C(=O)OC(c2ccc(Br)cc2)C(C)(C)C1=O (configuration not stated)	-16%
O=C(CC(c1cccs1)N1Cc2ccccc2C1=O)Nc1ccc(F)c(Cl)c1 (configuration not stated)	-8%
CC(C)Oc1ccc(CNC(=O)C2CCN(c3nc4ccccc4nc3C(F)(F)F)CC2)cc1	14%
CC(C)(C)NC(=O)CCN(/N=C/c1ccccc1F)C1=NS(=O)(=O)c2ccccc21	-7%

The last two entries of the part before come first, to join the parts:
SMILES	VDR inhibitor
CC(C)Oc1ccc(CNC(=O)C2CCN(c3nc4ccccc4nc3C(F)(F)F)CC2)cc1	14%
CC(C)(C)NC(=O)CCN(/N=C/c1ccccc1F)C1=NS(=O)(=O)c2ccccc21	-7%
COc1ccc(S(=O)(=O)N2CCN(C(=O)COc3ccccc3)CC2)cc1	-12%
COc1cccc(CNC(=O)CCNC(=O)Cn2ccc3ccccc3c2=O)c1	1%
Cc1cccc(NC(=O)C2CCN(S(=O)(=O)c3ccc4c(c3)NC(=O)CO4)CC2)c1C	7%
COc1ccc(N2C(=O)C3ON(C4SC(=S)N(C)C4(C)C)C(c4ccc([N+](=O)[O-])cc4)C3C2=O)cc1 (configuration not stated)	-10%
COc1ccc(CNc2cc(C)nc3ncnn23)c(OC)c1	-7%
CCOc1ccc(S(=O)(=O)NNC(=O)c2cc3ccccc3o2)cc1	-2%
Cc1cc2nc3c(=O)n(C4CCCCC4)c(=O)[nH]c3nc2cc1N	?
O=C(CCC(=O)Nc1ccccc1)N/N=C/c1ccccc1F	5%
Cc1ccc(-c2cn(S(=O)(=O)c3cccc4nsnc34)nc2N)cc1	22%
COc1ccc(CC(=O)NCCc2csc3nc(-c4ccccc4F)nn23)cc1	-7%
O=C(c1ccc(F)cc1)N1CCc2c([nH]c3ccccc23)C1c1ccc(Cl)cc1 (configuration not stated)	10%
Clc1ccc(-c2nnc(-c3ccccc3)c(-c3ccccc3)n2)cc1	9%
COc1ccc(CNC(=O)Cn2cnc3c(SC)nc(N)nc32)cc1	-1%
CCc1ccc(-c2csc3ncn(Cc4ccc(C(=O)O)cc4)c(=O)c23)cc1	-10%
CCOc1ccc(NC(=O)CC2C(=O)N(CC)C(=S)N2CCNC(C)=O)cc1 (configuration not stated)	6%
CC(C)CNC(=O)[C@H](Cc1ccccc1)NC(=O)c1ccco1	-5%
Cc1c(Cl)cccc1NC(=O)CNCc1ccccc1F	-6%
Cc1cc2ncn(S(=O)(=O)N(C)C)c2cc1C	9%
COc1cc(NS(=O)(=O)c2ccc3c(c2)C(C)(C)C(=O)N3C)cc(OC)c1	-3%
O=S(=O)(NC(=NCc1ccccc1)c1ccccc1)c1ccccc1	-15%
CC1=C(C(=O)Nc2ccccc2)C(c2cc(CN3CCOCC3)cs2)C2=C(CCCC2=O)N1 (configuration not stated)	-26%
Cc1ccc(-c2nc3ccccc3[nH]2)cn1	-4%
CC(=O)c1ccc(NC(=O)N2CCN(c3ccc(C)cc3)C(C)C2)cc1 (configuration not stated)	-1%
O=C(/C=C1\SC(=O)NC1=O)Nc1ccc(C(=O)O)cc1	12%
Cc1c(Cc2ccccc2)c(=O)oc2cc(O)cc(O)c12	11%
COc1cc(CCC(=O)OCC(=O)Nc2c(F)cccc2F)cc(OC)c1OC	0%
COc1ccccc1N(CCC#N)C(=S)Nc1ccc(S(=O)(=O)N2CCOCC2)cc1	?
CCOc1ccc(CNC(=O)CS(=O)(=O)Cc2nc(-c3ccc(OC)cc3)oc2C)cc1	-23%
O=C(OC1CO[C@H]2O[C@@H]1[C@H](OC(=O)c1ccccc1)[C@H]2OC(=O)c1ccccc1)c1ccccc1 (some centres not stated)	7%
Cn1c(CN2CCOCC2)nc2cc(NC(=O)c3ccc(F)cc3)ccc21	-15%

Shown as a hit in VDR inhibitor, of those listed so far:
SMILES	VDR inhibitor
COc1cc(CNc2ccc(N3CCCC3)cc2)cc(Cl)c1OC	5.6µM*

Single entries from the entries so far.
`Cc1ccc(-c2nnc(C3CCN(S(=O)(=O)c4ccc(C)c(C)c4)CC3)o2)cc1` – VDR inhibitor = -14%
`CCN(CC(=O)Nc1c(F)cccc1F)C(=O)C1CCC1` – VDR inhibitor = -6%
`O=C(c1csc2ccccc12)N1CCCCCC1` – VDR inhibitor = 11%
`O=C(c1ccc(Cl)cc1)c1ccccc1C(=O)N1CCOCC1` – VDR inhibitor = 1%
